Screens as filed in PubChem.
MLL AF4-AF9 inh: inhibitors of human MLL-AF4/AF9 interaction. P42568. AlphaScreen, biotin-AF4 peptide binding to FLAG-AF9. inhibition, % at 10 µM. 350,000 tested, 0.47% active;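 active = every replicate reaching a set inhibition limit, whatever the replicate mean, cut at about 25% in these data; inconclusive = mean inhibition reaches that limit but some replicates miss it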;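 note: 0% = plate neutral control median and 100% = total signal loss; the record names both 10 and 1 µM as test concentration; the first replicate is given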
Target sequence (P42568 whole entry, looked up): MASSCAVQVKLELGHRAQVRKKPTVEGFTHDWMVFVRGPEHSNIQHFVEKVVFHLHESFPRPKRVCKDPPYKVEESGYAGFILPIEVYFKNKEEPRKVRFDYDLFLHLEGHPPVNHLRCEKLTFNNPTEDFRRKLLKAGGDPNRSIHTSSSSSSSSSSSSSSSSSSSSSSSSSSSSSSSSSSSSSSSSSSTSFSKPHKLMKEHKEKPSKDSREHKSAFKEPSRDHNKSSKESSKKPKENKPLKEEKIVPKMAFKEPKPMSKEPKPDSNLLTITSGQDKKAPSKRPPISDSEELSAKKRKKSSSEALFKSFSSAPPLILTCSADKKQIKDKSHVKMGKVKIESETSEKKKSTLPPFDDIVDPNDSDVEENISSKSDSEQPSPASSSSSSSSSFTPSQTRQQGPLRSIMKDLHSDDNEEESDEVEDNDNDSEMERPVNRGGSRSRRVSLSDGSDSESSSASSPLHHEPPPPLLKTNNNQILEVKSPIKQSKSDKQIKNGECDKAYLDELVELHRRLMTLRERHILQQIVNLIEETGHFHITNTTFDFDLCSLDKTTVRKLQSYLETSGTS
Calb FLC: affects C. albicans growth with fluconazole; C. albicans CaCi-2 (fluconazole-resistant clinical isolate) + fluconazole, Alamar Blue growth, 48 h; growth inhibition, % (test concentration not listed); 300,000 tested, 0.57% active; AID 1979;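 active = most replicates above 75%; inconclusive = exactly half above 75%; inactive = most below 75%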;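 note: all wells also contain fluconazole at 8 µg/ml as a sub-toxic cotreatment; 0% = median of DMSO wells and 100% = median of geldanamycin control wells; wells of about 8 µL received 7.5 nL stock; the first replicate is given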
RanGTP-Imp inh: inhibitors of RanGTP-importin-beta interaction, primary screen, biochemical, FRET, CFP-Ran, YFP-importin-beta, homogeneous | inhibition, % (concentration not given with the values) | 300,000 tested, 1.1% active | cell-free CFP-Ran/YFP-importin-beta FRET ratio;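 active = most replicates above 15%; inconclusive = exactly half above 15%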;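 note: 0% = DMSO wells and 100% = Ran loaded with GDP instead of GTP; wells of about 40 µL received 100 nL stock; the first replicate is given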
T cruzi inh: T. cruzi replication inhibition; AID 1885; T. cruzi beta-gal in NIH3T3, luminescence, 90 h; 300,000 tested, 1.4% active; inhibition, % (no concentration beside the values);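 active = mean inhibition across valid replicates above about 55%, limit read from the data; inconclusive = mean below that limit but half or more replicates reach it; inactive = mean below it, under half of replicates reach it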;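 note: signal also drops with host cell toxicity which is not excluded here; 0% = plate median of DMSO wells and 100% = zero luminescence signal; higher percent means less beta-gal luminescence so fewer parasites; stock transfer was 50 nL into about 50 µL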
Ecoli rRNA inh: inhibits bacterial ribosomal RNA function over humanized ribosomes; GFP signal change (wild-type ribosome), % (concentration not given with the values); E. coli WT GFP vs humanized-ribosome RFP mutants, fluorescence, 24 h; hits give low values; DMSO median 0, no signal -100; 350,000 tested, 1.6% active;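 active = significant combined selectivity score with lowered wild-type GFP, culture density cut under 30%, mutant RFP and density less affected; inactive = any of these conditions unmet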; note: one replicate is shown; some compounds called inactive have numbers as strong as hits
ALR inh: inhibitors of human sulfhydryl oxidase ALR. P55789. inhibition, % (no concentration beside the values). 290,000 tested, 3.8% active. purified ALR, DTT oxidation, H2O2 HRP-luminol luminescence;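 active = mean and each replicate at 75% or more; inconclusive = only one of the two met; inactive = neither met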;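 note: stock transfer was 7.5 nL into about 7.5 µL; 0% = neutral wells and 100% = wells with inactivated enzyme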
Target sequence (P55789 whole entry, looked up): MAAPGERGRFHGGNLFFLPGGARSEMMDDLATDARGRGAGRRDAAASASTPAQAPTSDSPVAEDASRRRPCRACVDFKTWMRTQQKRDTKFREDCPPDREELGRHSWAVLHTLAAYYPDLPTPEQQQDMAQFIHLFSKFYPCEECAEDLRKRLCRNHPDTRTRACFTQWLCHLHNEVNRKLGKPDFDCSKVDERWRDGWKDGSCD
FGF22 binding: shifts melting point of recombinant human FGF22; Q9HCT0; recombinant FGF22 thermal shift, SYPRO orange fluorescence; percent of sucrose octasulfate shift, DMSO zero; calls only at 9.99 µM; 340,000 tested, 1.5% active; AID 651658;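 active = melting point raised past a set limit in the mean and every replicate; inconclusive = no clear call; three in four hits are not shown here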
Target sequence (Q9HCT0 whole entry, looked up): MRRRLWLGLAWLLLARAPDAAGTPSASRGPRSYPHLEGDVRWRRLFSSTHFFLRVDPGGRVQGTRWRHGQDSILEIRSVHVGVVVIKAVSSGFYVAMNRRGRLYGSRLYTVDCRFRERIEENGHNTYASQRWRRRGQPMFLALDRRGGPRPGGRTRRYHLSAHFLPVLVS
Beta cell apopt: blocks beta cell apoptosis | INS-1E cytokine-induced death, ATP luminescence, 48 h; percent of positive-control rescue, neutral wells zero | protection from apoptosis, % (no concentration beside the values) | 300,000 tested, 0.8% active;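 active = all replicates at 75% or more, or half of them and the mean; inconclusive = half reach 75% but not the mean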;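 note: 0% = cytokine-treated negative control wells and 100% = positive control rescue; higher means more ATP so stronger rescue from cytokine killing; wells of about 40 µL received 100 nL stock; the first replicate is given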
Ecoli rRNA inh OD600: also measured in Ecoli rRNA inh; calls as there; OD600 change, %; measured here: OD600 growth;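 optical density of the mix in the first replicate; 0 = DMSO median and -100 = no signal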
Ecoli rRNA inh RFP: further read-out of Ecoli rRNA inh, marked with its call; RFP signal change, %; measured here: RFP humanized mutant strains;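 first replicate; 0 = DMSO median and -100 = no signal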
Active calls of the source: *; i = inactive; ? = inconclusive; nt = no result given. These rows are one share of the data; count on the stated rates, not on these rows.

SMILES	MLL AF4-AF9 inh	Calb FLC	RanGTP-Imp inh	T cruzi inh	Ecoli rRNA inh	Ecoli rRNA inh OD600	Ecoli rRNA inh RFP	ALR inh	FGF22 binding	Beta cell apopt
O=C(O)c1cccnc1Sc1ccc(Br)cc1	-1.6	1	?	-1	2	8	-3.5	4	i	nt
O=[N+]([O-])c1ccc(S(=O)(=O)Nc2ccc3c(c2)OCCO3)cc1	3.9	10	1.3	12	2	7	1.5	nt	i	-2
Cc1cc(OCC(=O)NCCCN(C)C)cc(C)c1Br	nt	-1	3.0	20	nt	nt	nt	-11	nt	-10
S=c1[nH]nc(Cc2ccc(Cl)cc2)n1-c1ccc2c(c1)OCCO2	-6.0	14	1.8	11	-26	-36	-6.7	10	i	-5
Cc1ccc(OCC(=O)Nc2cccc(C)n2)c(C)c1	nt	-8	-0.8	-3	nt	nt	nt	nt	nt	-7
O=[N+]([O-])c1ccc(O)c(/C=N/NC(=S)Nc2ccc(Cl)cc2Cl)c1	2.0	101*	2.7	44	-15	-11	1.7	23	i	121*
O=C(Nc1ccc([N+](=O)[O-])cn1)c1ccc(Br)o1	nt	-20	1.0	6	nt	nt	nt	-6	nt	2
CC(=O)c1sc(NC(=O)CCNC(=O)c2ccco2)nc1-c1ccccc1	0.4	6	-1.0	4	-15	-20	0.6	2	i	-7
C=CCn1c(N)c(-c2nc3ccccc3n2C)sc1=S	nt	-7	14	5	nt	nt	nt	90*	nt	3
N/C(=N\OC(=O)COc1ccccc1)c1ccncc1	-2.0	2	0.1	-4	-8	2	-1.0	-7	i	-4
CCCOc1ccc(C(C)=O)cc1CC(C(N)=O)C(N)=O	nt	0	?	-12	nt	nt	nt	-1	nt	-8
COc1ccc(N(CC(=O)NCCC2=CCCCC2)S(=O)(=O)c2ccccc2F)cc1	-49	2	3.5	4	-24	-21	7.2	-7	i	2
COc1ccc(C(=O)OCC(=O)Nc2cc(C)on2)c(OC)c1OC	0.4	4	3.0	-14	6	2	1.5	-7	i	-3
N#Cc1c(N)nc2c(c1-c1ccc(F)cc1)c(=O)nc1sccn12	-2.1	29	-4.6	-6	6	5	6.2	-3	i	nt
CNc1nc(-c2ccc3c(c2)CCN3C(=O)c2cccc(F)c2)cs1	12	-3	5.9	20	8	-2	-3.4	1	i	9
Cc1ccc(C(C)C)c(OCC(=O)NC2CCN(C)CC2)c1	-0.1	nt	nt	64*	14	8	5.6	0	i	-1
c1ccc(Nc2nc(NCCN3CCOCC3)nc(Nc3ccccc3)n2)cc1	7.5	2	-1.0	?	9	10	1.4	?	i	nt
C#CCSc1nnc(-c2c[nH]c3ccccc23)n1C	4.7	1	-1.1	-3	-1	5	-2.1	-1	i	-1
CCOC(=O)C1=C(COC(=O)c2ccccc2OC(F)F)NC(=O)NC1C (stereo not drawn)	2.2	-4	-0.4	-2	-8	-9	1.1	nt	i	2
CCCCCCc1cc2cc(C(=O)OCC)c(=O)oc2cc1O	-23	66	190*	-15	-9	1	15	2	i	2
NC(=O)C1CCN(c2nc(-c3ccccc3-c3ccccc3)cs2)CC1	-1.2	nt	nt	nt	4	7	25	56	i	-1
O=C(NCC1CCCC(CNC(=O)N2CCc3ccccc32)C1)N1CCc2ccccc21 (stereo not drawn)	nt	0	5.6	19	nt	nt	nt	8	nt	6
CC(C)NC(=S)NN=C1CCC(c2ccccc2)CC1 (stereo not drawn)	4.6	-5	-3.7	-5	9	6	-1.4	3	i	5
O=C(NCc1cccs1)C1CCCN1C(=O)Nc1ccccc1[N+](=O)[O-] (stereo not drawn)	-0.3	0	11	-6	3	6	-3.5	3	i	5
COC(=O)/C(C#N)=C/c1ccc(OC(=O)c2ccccn2)cc1	2.0	-9	2.8	-3	-29	-34	11	70	i	-5
C=CCOc1ccc(/C=N/NC(=O)C(C)Sc2ccccn2)cc1OCC (stereo not drawn)	1.4	5	5.8	5	4	3	0.7	-4	i	-4
COc1ccc(N=Nc2cc(C)ccc2O)cc1	4.0	11	-2.6	-1	2	3	-0.7	1	i	-9
COC(=O)c1ccc(NC(=S)N2CCCC2)cc1	-3.3	8	0.0	-8	20	6	-0.8	-4	i	0
Cc1ccc(NC(=O)N2N=C(c3ccc(F)cc3)CC2c2ccc(F)cc2)cc1 (stereo not drawn)	-7.3	-16	7.2	29	16	17	1.3	-2	i	12
O=C(Nc1ccccc1F)c1ccc(CN2CCc3ccccc3C2)cc1	-3.4	-5	?	0	8	5	-2.0	5	i	-3

Structures listed so far shown as hits in ALR inh.
mol	MLL AF4-AF9 inh	RanGTP-Imp inh	Ecoli rRNA inh	Ecoli rRNA inh OD600	Ecoli rRNA inh RFP	ALR inh	FGF22 binding
C=CCn1c(N)c(-c2nc3ccccc3n2C)sc1=S	nt	14	nt	nt	nt	90*	nt

(next part)
SMILES	MLL AF4-AF9 inh	Calb FLC	RanGTP-Imp inh	T cruzi inh	Ecoli rRNA inh	Ecoli rRNA inh OD600	Ecoli rRNA inh RFP	ALR inh	FGF22 binding	Beta cell apopt
O=C(N[C@@H]1C/C=C\C[C@@H](CC(=O)N(CCO)Cc2ccccc2)C(=O)N[C@@H](c2ccccc2)COC1=O)OCC1c2ccccc2-c2ccccc21	3.3	nt	nt	nt	6	10	-0.3	-9	i	42
Cc1ccc(C)c(NC(=O)CSc2nnc(C3CCCCC3)o2)c1	0.4	1	-3.5	1	4	14	0.7	0	i	2
COCCSc1nnc(NC(=O)c2ccc(NC(=O)C(C)C)cc2)s1	-1.7	-2	-1.0	-9	9	9	-3.2	-5	nt	-1
S=C(Nc1ccc(Cl)cc1)NC1CC2CCC(C1)N2Cc1ccccc1 (stereo not drawn)	16	-45	?	16	-56	-77	-13	-1	i	nt
Cc1ccc(C(=O)CSc2cc(C)nc(SCC(=O)c3ccccc3)n2)cc1	nt	-2	-1.3	23	nt	nt	nt	nt	nt	-1
Cc1nn(CCC#N)c(NC(=O)c2ccccc2)c1P(=O)(Nc1ccc(Br)cc1)N1CCOCC1 (stereo not drawn)	2.8	0	-0.7	-9	6	-1	5.1	-18	i	1
CCN(CC)S(=O)(=O)c1ccc(C)c(NC(=O)COC(=O)CNC(=O)c2ccc(C(C)(C)C)cc2)c1	0.4	8	-1.2	3	-16	-9	-0.1	-4	i	2
CCc1ccc(NC(=O)CN(CC(=O)Nc2ccc(CC)cc2)CC(C)O)cc1 (stereo not drawn)	-4.5	5	0.7	21	-26	-41	-1.6	-3	i	2
O=C(CCc1ccccc1)Nc1ccc(N2CCOCC2)c(Cl)c1	nt	4	-0.2	-1	nt	nt	nt	-9	nt	-8
CCCCOc1ccc(C(=O)NCC2(c3ccc(OC)cc3)CCOCC2)cc1	nt	5	?	17	nt	nt	nt	-4	nt	-2
CCOC(=O)c1cnn(CCOC(=O)c2ccccc2F)c1NC(=O)c1ccccc1F	-11	24	3.5	-5	1	-1	3.0	1	i	-9
OC(CN1CCN(c2cccc(Cl)c2)CC1)c1ccc(F)cc1 (stereo not drawn)	1.1	0	-1.7	-22	-8	-9	-0.1	nt	i	0
CCOC(=O)c1ccc(NC(=O)CN2C(=O)NC3(CCCCCC3)C2=O)cc1	2.9	-3	0.4	12	-19	-22	0.5	-7	i	-6
Cc1onc(COc2ccccc2O)c1Br	nt	15	2.3	-4	nt	nt	nt	9	nt	nt
COc1ccc(S(=O)(=O)N2CCCCCC2)cc1C(=O)NC1(C)CCS(=O)(=O)C1 (stereo not drawn)	-13	-1	5.1	2	2	10	-4.4	-4	i	-2
Cc1ccc(NC(=O)c2nc[nH]c2C(=O)NCCCCCCNC(=O)c2[nH]cnc2C(=O)Nc2ccc(C)cc2)cc1	1.4	nt	nt	nt	11	3	-1.5	1	i	22
Cc1cc2oc(=O)cc(CSc3nc(N)cc(N)n3)c2cc1C	nt	2	3.4	-9	nt	nt	nt	-13	nt	-6
CN1CCN(C(c2ccc(Br)cc2)c2cc(Cl)c3cccnc3c2O)CC1 (stereo not drawn)	84*	90*	-0.8	21	-53	-74	-26	17	i	73
COc1ccc(-c2ccc(OC)c([C@H]3[C@@H]4C=CCC[C@@]4(C)C(=O)N3Cc3ccccc3)c2)cc1OC	-1.0	17	?	13	5	14	-3.5	-13	i	5
Nn1c(Nc2ccc(Cl)cc2)nncc1=O	-0.5	10	4.5	4	7	1	-3.2	-14	nt	4
COc1cc(/C=N/NC(=O)/C(=C\c2ccc3c(c2)OCO3)NC(=O)c2ccccc2)ccc1O	1.0	-2	1.2	5	-7	1	4.4	27	i	0
CC(=O)Nc1cccc(C(=O)OC2CCOC2=O)c1 (stereo not drawn)	2.6	-3	2.4	5	9	12	0.1	-8	i	nt
CCN(CC)S(=O)(=O)c1ccc(Cl)nc1	-4.2	-3	-4.4	-11	5	7	2.9	1	i	-3
COc1ccc(C(=O)N2CCN(C3CCN(Cc4ccccc4)CC3)CC2)cc1OC	nt	-4	-2.4	9	nt	nt	nt	-5	nt	0
COc1ccc(-c2cn[nH]c2C)cc1	-2.4	-16	1.5	-2	0	-1	0.3	-23	i	-3
COc1ccc(NC(=O)C2CCCN2C(=O)Oc2ccccc2)cc1 (stereo not drawn)	0.9	8	-0.8	-8	12	11	-0.9	-9	i	-5
O=S(=O)(c1ccc2c(c1)OCCO2)N1C[C@@H]2C[C@H]1CN2S(=O)(=O)c1c(F)cccc1F	-8.1	nt	nt	nt	-2	-6	3.9	-4	i	7
COc1ccc2c(c1)SC1=NCCS(=O)(=O)N12	nt	9	-3.3	-4	nt	nt	nt	-8	nt	3
CSc1ccccc1C(=O)OCC(=O)N1CCCC1=O	0.9	nt	nt	nt	8	3	-0.9	-1	i	-7
CN(C)S(=O)(=O)c1ccc(C(=O)N2CCN=C2SCc2ccccc2)cc1	-0.5	13	24	3	13	9	-0.5	-12	i	2

A few values from the list.
Calb FLC, Cc1cc2oc(=O)cc(CSc3nc(N)cc(N)n3)c2cc1C = 2
ALR inh, CN1CCN(C(c2ccc(Br)cc2)c2cc(Cl)c3cccnc3c2O)CC1 (stereo not drawn) = 17

(next part)
SMILES	MLL AF4-AF9 inh	Calb FLC	RanGTP-Imp inh	T cruzi inh	Ecoli rRNA inh	Ecoli rRNA inh OD600	Ecoli rRNA inh RFP	ALR inh	FGF22 binding	Beta cell apopt
COC(=O)c1ccccc1NC(=O)N1CCN(c2ccc(OC)cc2)CC1	-6.0	-1	3.5	-2	-26	-31	-3.0	41	i	-5
Cc1c(C(=O)NC(=S)Nc2ccc(NC(=O)c3cccs3)cc2)cccc1[N+](=O)[O-]	nt	3	-1.1	24	nt	nt	nt	nt	nt	6
Cc1ccc(C(C)NC(=O)c2ccncc2)cc1C (stereo not drawn)	-1.8	0	3.6	-2	12	-8	1.0	-7	i	-9
COc1ccc(C(CNC(=O)CSc2ccc(Br)cc2C)N2CCOCC2)cc1 (stereo not drawn)	0.4	-9	-1.6	3	-6	-25	0.9	-3	i	0
CN(C(=O)COC(=O)c1sc2ccccc2c1Cl)C1CCCCC1	-1.5	10	-0.9	9	-28	-26	-5.4	nt	i	-8
O=c1n(Cc2ccccc2)c2cc(Cl)cnc2n1Cc1ccccc1	nt	5	-0.9	18	nt	nt	nt	-2	nt	-2
COc1ccc(C(=O)/C=C/c2cc(C(=O)O)cc3c2OCOC3)c(O)c1	0.5	-2	-2.1	-18	10	0	9.1	29	i	-22
